# Luciferase inh: Photinus pyralis luciferase inhibition | purified P. pyralis luciferase, luminescence, biochemical | actives 2.5% (n = 76,000) | Potency, µM (top dose mostly 115 µM), without a hit: top-dose activity change, negative = inhibition, actives largely listed as inhibitors; note: nearly all actives have a fitted effect of over 65% in size
# Target sequence (P08659 whole entry, looked up): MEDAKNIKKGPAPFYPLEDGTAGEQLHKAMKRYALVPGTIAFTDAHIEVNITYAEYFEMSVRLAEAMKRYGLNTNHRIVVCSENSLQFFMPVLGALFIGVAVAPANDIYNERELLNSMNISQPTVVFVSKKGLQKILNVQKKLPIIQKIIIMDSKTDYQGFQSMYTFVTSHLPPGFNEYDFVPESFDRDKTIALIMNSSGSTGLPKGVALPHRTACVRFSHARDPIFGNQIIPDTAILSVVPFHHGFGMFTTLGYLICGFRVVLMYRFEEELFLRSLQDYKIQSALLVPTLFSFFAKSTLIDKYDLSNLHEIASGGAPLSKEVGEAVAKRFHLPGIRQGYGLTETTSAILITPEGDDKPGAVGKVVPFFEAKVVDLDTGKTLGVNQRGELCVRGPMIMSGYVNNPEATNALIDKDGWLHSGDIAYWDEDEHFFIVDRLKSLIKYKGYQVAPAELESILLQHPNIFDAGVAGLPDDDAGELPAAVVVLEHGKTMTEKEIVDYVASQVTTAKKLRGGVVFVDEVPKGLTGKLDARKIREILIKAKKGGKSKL
#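 Inhibitors were tested against purified firefly luciferase in a biochemical, low-substrate format (both substrates at 10uM) and luminescence measured with a CCD imager.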
# GPT2 inh: GPT2 alanine aminotransferase inhibition. Potency, µM (highest dose often 57.7 µM), inactives show at the top dose activity change, negative = inhibition, most hits filed as inhibitors. Recombinant GPT2, coupled pyruvate oxidase/HRP Amplex Red fluorescence. Q8TD30. actives 0.25% (n = 100,000); note: nearly all actives have a fitted effect of over 60% in size; many of its hits are not listed in these tables
#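 Fluorescence read-out: pyruvate from GPT2 turnover coupled to pyruvate oxidase, HRP and Amplex Red (0.2mM ThPP, 0.2U/mL PO and HRP, 50uM Amplex final). Substrates 250uM a-KG, 2mM L-alanine; enzyme 10ng/uL; 30 min RT.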
# 3T3 cytotox: cytotoxic compounds in NIH 3T3 cells | NIH 3T3 viability, CellTiter-Glo ATP luminescence, 48-72 h | Potency, µM (doses to about 96.7 µM), inactives show top-dose activity change, negative = cytotoxicity, actives largely listed as inhibitors | actives 4.3% (n = 94,000); note: nearly all actives have a fitted effect of over 55% in size
#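 NIH 3T3 cells at 400 cells/well received 23 nL of compound by pintool and were incubated 48 or 72 h at 37 °C. Viability was read as ATP-coupled CellTiter-Glo luminescence.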
# HEK293 viab: reduces viability of HEK-293 SNCA reporter cells | Potency, µM (series often up to 57.1 µM), inactives show at the top dose activity change, negative = cytotoxicity, usual class: cytotoxic | HEK-293-SNCA-luc viability, GF-AFC fluorescence, 24 h | actives 0.12% (n = 150,000);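 note: 0% = DMSO-treated cells and -100% = medium-only wells without cells; nearly all actives have a fitted effect of over 30% in size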
#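 Cytotoxicity counterscreen: after 24 h compound treatment of genome-edited SNCA-luciferase HEK-293 cells, live-cell protease substrate GF-AFC read by fluorescence after 30 min; activity scaled between DMSO (0%) and medium-only (-100%), curves Hill-fitted.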
# HEK293 tox: cytotoxic compounds in HEK 293 cells. HEK 293 viability, ATP luminescence (CellTiter-Glo), 48-72 h. Potency, µM (titrated, usually from 115 µM), without a hit: top-dose activity change, negative = cytotoxicity, actives largely listed as inhibitors. actives 6.6% (n = 94,000). AID 1345083; note: nearly all actives have a fitted effect of over 60% in size
#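 Pintool-delivered compounds were incubated with HEK 293 cells (250 cells/well) at 37 degree Celsius for 48 or 72 hr. ATP-dependent luminescence (CellTiter-Glo) then reported remaining viable cells.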
# SNCA expr inh: inhibitors of alpha-synuclein (SNCA) gene expression; Potency, µM (doses to about 57.2 µM), inactives show top-dose activity change, negative = inhibition, hits mostly inhibitors; AID 1671194; actives 0.17% (n = 140,000); HEK-293 SNCA-luciferase knock-in, luminescence, 24 h;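 note: plate controls were DMSO cells for no effect and cell-free wells for full effect; nearly all actives have a fitted effect of over 45% in size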
# Numbers without * were called inactive; i = inactive; u = inconclusive; x = not tested or not shown; [ ] = remark or other dose. Calls come from the whole dose curve; as a rule, active = well fitted curve in the direction sought with a large enough effect; inconclusive = small, poorly fitted or top-dose-only effect, or another doubt; inactive = no such curve, though single readings can be large; an effect the other way counts as inactive or inconclusive. Unless noted, % is set by controls: 0 for no effect and ±100 for the full control effect; potency is the fitted concentration of half-maximal effect.
1. COc1ccc(NC(=O)CCS(=O)(=O)c2nc(-c3ccc4c(c3)OCO4)cc(C(F)(F)F)n2)cc1
2. COCC(C)Nc1ncnc2c1cnn2-c1ccc(C)c(C)c1 (configuration not stated)
3. O=C(NCc1cccc(Cl)c1)c1cnc2c(c1)N(C(=O)Cc1ccc(O)cc1)CCC2
4. CC1=C(C(=O)Nc2cccnc2)C(c2ccc(Cl)cc2)n2nc(SCc3ccccc3)nc2N1 (configuration not stated)
5. CSc1ccccc1NC(=O)CCS(=O)(=O)c1nc(-c2ccc3c(c2)OCO3)cc(C(F)(F)F)n1
6. COC(=O)c1cccc(CN2C(=O)SC(Nc3ccc(C)cc3)C2=O)c1 (configuration not stated)

assay / entry | 1 | 2 | 3 | 4 | 5 | 6
Luciferase inh | x | x | -12%[172 µM] | x | x | x
GPT2 inh | x | x | 1%[88.5 µM] | x | x | x
3T3 cytotox | x | x | u | x | x | x
HEK293 viab | -26% | -2% | -8%[87.6 µM] | 5% | -28% | -20%
HEK293 tox | x | x | u | x | x | x
SNCA expr inh | u | 54%[activator] | -22%[87.6 µM] | 8% | -22% | -22%

7. COC(=O)CNC(=O)C1=NOC2CN(C(=O)C3CC3)CC12 (configuration not stated)
8. CN(C)C(=O)c1nc(-c2cccnc2)c2ccccn12
9. C[S+](=O)([O-])c1ccc(-c2nc(C(=O)N3CCOCC3)n3ccccc23)cc1
10. O=C(NCc1ccccc1)C(=O)Nc1c2c(nn1-c1ccc(F)cc1)CSC2
11. Cc1ccc(Sc2cncc3sc(C(N)=O)cc23)cc1
12. Cc1noc(C)c1[S+](=O)([O-])N1CCn2c(nnc2-c2ccncc2)C1

assay / entry | 7 | 8 | 9 | 10 | 11 | 12
Luciferase inh | x | -16%[172 µM] | x | x | x | x
GPT2 inh | -15% | 2%[88.5 µM] | 3% | x | u | -7%
3T3 cytotox | 5% | -26%[138 µM] | -3% | x | x | 0%
HEK293 viab | 5% | -5%[87.6 µM] | 1% | -8% | -9% | 7%
HEK293 tox | 3% | 2%[172 µM] | i | x | x | -10%
SNCA expr inh | 13% | 50%[activator][87.6 µM] | -7% | -6% | x | -10%

# By substructure: the compounds so far with an aryl thioether with sulfur outside any ring.
4. CC1=C(C(=O)Nc2cccnc2)C(c2ccc(Cl)cc2)n2nc(SCc3ccccc3)nc2N1 (configuration not stated)
5. CSc1ccccc1NC(=O)CCS(=O)(=O)c1nc(-c2ccc3c(c2)OCO3)cc(C(F)(F)F)n1
11. Cc1ccc(Sc2cncc3sc(C(N)=O)cc23)cc1

assay / entry | 4 | 5 | 11
Luciferase inh | x | x | x
GPT2 inh | x | x | u
3T3 cytotox | x | x | x
HEK293 viab | 5% | -28% | -9%
HEK293 tox | x | x | x
SNCA expr inh | 8% | -22% | x

# (list continues)
13. Cc1cc(C)cc(Nc2nc(C)cc(=O)n2CC(=O)Nc2cccc(C#N)c2)c1
14. CCn1nc(C)c(CCNC(=O)c2cccc(C3CCNC3)c2)c1C (configuration not stated)
15. O=C(CSc1oc(-c2ccccc2)nc1S(=O)(=O)c1ccc(Br)cc1)c1ccccc1
16. CS(=O)(=O)c1ccc(-c2nc(C(=O)N3CCCC3)n3ccccc23)cc1
17. COc1cccc(C2C(C(=O)Nc3cccnc3)=C(C)Nc3nc(SCc4ccccc4)nn32)c1 (configuration not stated)
18. CCOc1ccc(NC(=O)c2cc3c(-c4ccccc4F)nn(C)c3s2)cc1

assay / entry | 13 | 14 | 15 | 16 | 17 | 18
Luciferase inh | 11% | -7% | x | x | x | x
GPT2 inh | i | u | x | 2% | x | x
3T3 cytotox | -9% | -1% | x | -4% | x | x
HEK293 viab | -20% | u | -5% | 0% | -1% | -1%
HEK293 tox | u | i | x | 1% | x | x
SNCA expr inh | -29% | 21% | -18% | 0% | u | u

19. O=C1Nc2ccccc2C12CCN(S(=O)(=O)c1ccccc1)C2 (configuration not stated)
20. Fc1cccc(Nc2ncc(-c3cccnc3)c3c2OCC3)c1
21. CCCn1c(=N)c(C(=O)NCc2cccnc2)cc2c(=O)n3ccccc3nc21
22. O=c1c(NCc2ccccc2Cl)nccn1-c1ccccc1
23. O=C(c1nc(-c2cccc(C(F)(F)F)c2)c2ccccn12)N1CCCC1
24. CCCCN(C)C(=O)C1CCC(CNS(=O)(=O)c2ccc3c(c2)CC(C)N3C(C)=O)CC1 (configuration not stated)

assay / entry | 19 | 20 | 21 | 22 | 23 | 24
Luciferase inh | x | -16%[172 µM] | x | x | -10% | x
GPT2 inh | i | i | x | x | -25% | x
3T3 cytotox | u | -34%[138 µM] | x | x | u | x
HEK293 viab | -5% | 5%[87.6 µM] | u | -2% | 7% | u
HEK293 tox | u | u | x | x | 40µM* | x
SNCA expr inh | -16% | 186%[activator][87.6 µM] | -16% | 52%[activator] | -19% | 4%

# In the list so far, two have a thiophene ring, fused or not.
11. Cc1ccc(Sc2cncc3sc(C(N)=O)cc23)cc1
18. CCOc1ccc(NC(=O)c2cc3c(-c4ccccc4F)nn(C)c3s2)cc1

assay / entry | 11 | 18
Luciferase inh | x | x
GPT2 inh | u | x
3T3 cytotox | x | x
HEK293 viab | -9% | -1%
HEK293 tox | x | x
SNCA expr inh | x | u

# Remaining list, next part.
25. CN(C(=O)C1=CC(c2ccc3c(c2)OCO3)=NS(=O)(=O)N1C)c1ccccc1
26. c1ccc(CO[C@@H]2CO[C@H]3[C@@H]2OC[C@@H]3n2nnnc2SCc2ccco2)cc1
27. CC(=O)N1c2ccc(S(=O)(=O)Nc3ccc(C)c(Cl)c3)cc2CC1C (configuration not stated)
28. COc1cccc([S+](=O)([O-])N2CCC(c3nn(-c4ccccn4)c(=O)[nH]3)CC2)c1
29. Cc1cccc(-c2nc(CCNC(=O)COc3ccccc3)cs2)c1
30. CCOc1ccccc1NC(=O)c1c(NC(=O)c2ccccc2C)sc2c1CCC(C)C2 (configuration not stated)

assay / entry | 25 | 26 | 27 | 28 | 29 | 30
Luciferase inh | x | -1%[172 µM] | x | x | x | x
GPT2 inh | x | i | x | -1% | x | x
3T3 cytotox | x | 89µM* | x | -12% | x | x
HEK293 viab | -15% | u | -1% | u | 7% | 14%
HEK293 tox | x | 89µM* | x | u | x | x
SNCA expr inh | 7% | u | -21% | -7% | 37%[activator] | 19%

31. O=C(NC1(C(F)(F)F)C(=O)Nc2c1c(=O)[nH]c(=O)n2-c1ccccc1)c1ccccc1Cl (configuration not stated)
32. Cc1ccccc1-c1cc(C(=O)NCCC(N)=O)c2c(c1)N(C)CCO2
33. COc1cccc(-c2cc(C(=O)NCCc3cnc[nH]3)c3c(c2)N(C)CCO3)c1OC
34. Clc1cccc(-n2ncc3c(NCCCn4ccnc4)ncnc32)c1
35. CCc1nn2c(-c3ccccc3OC)ccnc2c1-c1ccc(F)cc1
36. COc1cccc(-c2ccccc2NC(=O)C2CCN(Cc3ccc(F)cc3)CC2)c1

assay / entry | 31 | 32 | 33 | 34 | 35 | 36
Luciferase inh | x | -3%[172 µM] | -1%[172 µM] | x | x | -3%
GPT2 inh | x | 1%[88.5 µM] | i | x | x | 4%
3T3 cytotox | x | u | u | x | x | 22µM*
HEK293 viab | 5% | 8%[87.6 µM] | -18%[87.6 µM] | 1% | -4% | -17%
HEK293 tox | x | -29%[172 µM] | u | x | x | 32µM*
SNCA expr inh | -9% | 0%[87.6 µM] | -12%[87.6 µM] | 82%[activator] | -11% | u

37. O=C(c1cccs1)N1CCCc2cc(NS(=O)(=O)c3cc(F)ccc3F)ccc21
38. Cc1nn(C)c2c1c(C(F)(F)F)cc(=O)n2C(C)C(=O)NCCC(C)C (configuration not stated)
39. CCOC(=O)c1ccc(NC(=O)Cn2nc(SC)c(S(=O)(=O)c3ccc(Cl)cc3)c2N)cc1
40. Cn1nc(-c2ccccc2F)c2cc(C(=O)NCc3ccccc3Cl)sc21
41. COc1ccc(C(=O)NCCn2c(C)cnc2C2CC2)cn1
42. Cc1ccn(CC(=O)NCCn2c(C)cnc2C2CC2)n1

assay / entry | 37 | 38 | 39 | 40 | 41 | 42
Luciferase inh | x | x | x | x | 6% | 1%
GPT2 inh | x | x | x | x | i | i
3T3 cytotox | x | x | x | x | -12% | -12%
HEK293 viab | -4% | -14% | -1% | 6% | -18% | -10%
HEK293 tox | x | x | x | x | 0% | i
SNCA expr inh | 24% | 11% | u | -8% | -20% | -27%

43. CCOc1ccc(NC(=O)C(CC(C)C)N2Cc3ccccc3C2=O)cc1 (configuration not stated)
44. CCCCCNC(=O)C(=O)NCC(c1ccc2c(c1)OCO2)N1CCOCC1 (configuration not stated)
45. CCOC(=O)c1ccc(N2CC3=C(C2=O)C(c2ccc(OC)cc2)NC(=O)N3C)cc1 (configuration not stated)
46. CN1CCOc2c(C(=O)NCC[S+](C)(=O)[O-])cc(-c3ccccc3F)cc21
47. Cc1cccc2nc(Cn3c(=O)n(-c4ccccc4)c(=O)c4c5c(sc43)CCC5)cc(=O)n12

assay / entry | 43 | 44 | 45 | 46 | 47
Luciferase inh | x | x | x | -7%[172 µM] | x
GPT2 inh | x | x | x | i | x
3T3 cytotox | x | x | x | u | x
HEK293 viab | -10% | 9% | -6% | -3%[87.6 µM] | -12%
HEK293 tox | x | x | x | u | x
SNCA expr inh | -11% | 9% | 20% | -2%[87.6 µM] | 17%

# Screening data: PubChem BioAssay, National Center for Advancing Translational Sciences (NCATS)

# Not all compounds are listed; the hit share may differ from the screen's.
